Screening results deposited in PubChem by Broad Institute.
Ecoli rRNA inh: reduced GFP signal of wild-type E. coli, primary screen, bacterial rRNA inhibitor project, GFP/RFP fluorescence, OD600, single point. 1.6% of 350,000 active. GFP signal change (wild-type ribosome), % (test concentration not listed). E. coli WT GFP vs humanized-ribosome RFP mutants, 24 h; hits give low values; DMSO median 0, no signal -100. AID 720706, 2013;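 active = significant combined selectivity score with lowered wild-type GFP, culture density cut under 30%, mutant RFP and density less affected; inactive = any of these conditions unmet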; also: one replicate is shown; some compounds called inactive have numbers as strong as hits
Ecoli rRNA inh OD600: recorded beside Ecoli rRNA inh, whose call it bears; OD600 change, %; measured here: OD600 growth;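 optical density of the mix in the first replicate; 0 = DMSO median and -100 = no signal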
Ecoli rRNA inh RFP: further read-out of Ecoli rRNA inh, marked with its call; RFP signal change, %; measured here: RFP humanized mutant strains;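 first replicate; 0 = DMSO median and -100 = no signal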
Numbers without * were called inactive.

SMILES	Ecoli rRNA inh	Ecoli rRNA inh OD600	Ecoli rRNA inh RFP
CO[C@H]1CN(C)C(=O)c2ccc(NC(=O)C3CCCCC3)cc2OC[C@H](C)NC[C@@H]1C	-1	5	-1.3
O=C(Cc1ccccn1)N1CC2(C1)[C@H](c1ccccc1)[C@H](CO)N2C(=O)c1cccnc1	1	2	-1.4
C[C@H]1CC=CC[C@H](c2ccc3c(c2)OCO3)NC(=O)[C@H](Cc2ccccc2)N(C)C(=O)c2ccccc2O1 (mixture of isomers)	-4	-6	9.2
COc1ccc2c3c(n(C)c2c1)[C@H](CO)N(C(C)=O)CC31CN(Cc2ccc(Cl)cc2)C1	-5	-14	1.6
CCCC#Cc1cnc2c(c1)C(=O)N([C@H](C)CO)C[C@@H](C)[C@H](CN(C)C(=O)c1cccnc1)O2	-1	5	-2.0
C[C@H](CO)N1C[C@H](C)[C@@H](CN(C)CC2CCOCC2)Oc2ncc(-c3cccc(F)c3)cc2C1=O	2	4	-4.2
O=C(CN1CCOCC1)N[C@H]1CC[C@@H](CCn2cc(C3CCCC3)nn2)O[C@H]1CO	3	-3	-0.4
O=C(C1CCOCC1)N1CC(=O)N2[C@H](CO)[C@@H](c3ccc(C#CC4CCCC4)cc3)[C@@H]2C1	7	12	0.7
C[C@H](CO)N1C[C@H](C)[C@@H](CN(C)Cc2ccccc2)Oc2ncc(-c3cccnc3)cc2C1=O	3	-1	0.6
CS(=O)(=O)Nc1ccc2c(c1)[C@@H]1C[C@@H](CC(=O)O)O[C@@H](CO)[C@@H]1O2	3	-7	-2.0
C[C@H](CO)N1C[C@H](C)[C@@H](CN(C)S(C)(=O)=O)OCCCC[C@H](C)Oc2ccc(NC(=O)C3CCCCC3)cc2C1=O	0	3	-3.0
CC[C@@H]1C/C=C\C[C@@H](c2ccc(OC)cc2OC)NC(=O)[C@H](C)CC(=O)N1	0	-7	2.1
COc1ccc2c3c(n(C)c2c1)[C@@H](CO)N(Cc1ccc2c(c1)OCO2)CC31CN(C)C1	1	-3	-1.9
CCNC(=O)[C@@H]1[C@@H](CO)[C@@H]2Cn3c(ccc(C4=CCCC4)c3=O)[C@H]1N2Cc1ccncc1	3	12	2.1
COc1cccc(S(=O)(=O)N2CC[C@H]3[C@@H](CO)N(C)c4ccc(-c5ccccc5OC)cc4[C@H]32)c1	1	2	8.2
CCCNC(=O)Nc1ccc2c(c1)C(=O)N(C)[C@H]1CC[C@H](CC(=O)OC)O[C@@H]1CO2	1	5	-1.4
COc1ccc(NC(=O)N2CC(=O)N3[C@H](C2)[C@H](c2ccc(/C=C/c4ccccc4)cc2)[C@@H]3CO)cc1	-3	11	-2.0
C[C@@H]1CN([C@H](C)CO)C(=O)c2cccc(NC(=O)c3ccc(-c4nccs4)cc3)c2O[C@H]1CN(C)Cc1ccc(C(F)(F)F)cc1	2	11	1.1
CCCNC(=O)N1[C@H](CO)[C@H](c2ccc(C3=CCCC3)cc2)[C@H]1CNC(C)=O	-4	-5	-1.2
CNC[C@@H]1OCc2cnnn2CCCC(=O)N([C@H](C)CO)C[C@@H]1C	1	3	1.3
C[C@@H]1CCCCO[C@H](CN(C)C(=O)Nc2cccc3ccccc23)[C@H](C)CN([C@H](C)CO)C(=O)c2cc(NS(=O)(=O)c3ccc(F)cc3)ccc2O1	4	-3	2.7
CC=Cc1ccc2n(c1=O)C[C@@H]1[C@@H](CO)[C@H](C(=O)NC3CCCC3)N(CCC)[C@H]21 (mixture of isomers)	-1	-9	-0.7
N#Cc1ccc(-c2cccc(-c3nc(C(=O)O)cc4c3[C@H](CCO)N(CC3CCOCC3)C4)c2)cc1	6	10	-1.4
CCS(=O)(=O)N1[C@H](CO)[C@@H](c2ccccc2)C12CN(C(=O)C1CCC1)C2	-1	10	-2.8
COc1ccc(NC(=O)N(C)C[C@H]2OCCCC[C@H](C)Oc3ccc(NS(=O)(=O)c4ccc(C)cc4)cc3C(=O)N([C@@H](C)CO)C[C@H]2C)cc1	6	0	-4.7

Retrieved one by one from above (three):
SMILES	Ecoli rRNA inh	Ecoli rRNA inh OD600	Ecoli rRNA inh RFP
CC[C@@H]1C/C=C\C[C@@H](c2ccc(OC)cc2OC)NC(=O)[C@H](C)CC(=O)N1	0	-7	2.1
C[C@H](CO)N1C[C@H](C)[C@@H](CN(C)Cc2ccccc2)Oc2ncc(-c3cccnc3)cc2C1=O	3	-1	0.6
CCCC#Cc1cnc2c(c1)C(=O)N([C@H](C)CO)C[C@@H](C)[C@H](CN(C)C(=O)c1cccnc1)O2	-1	5	-2.0

Other records follow.
SMILES	Ecoli rRNA inh	Ecoli rRNA inh OD600	Ecoli rRNA inh RFP
CCNC(=O)Nc1ccc2c(c1)C(=O)N(C)[C@H]1CC[C@H](CC(=O)NCc3ccccc3F)O[C@H]1CO2	-1	1	0.9
Cc1ccc(S(=O)(=O)N(C)C[C@@H]2Oc3ccc(NS(=O)(=O)c4cn(C)cn4)cc3CC(=O)N([C@H](C)CO)C[C@@H]2C)cc1	1	3	-1.1
COc1ccccc1NC(=O)N1CC(=O)N2[C@H](CO)[C@H](c3ccc(-c4ccccc4)cc3)[C@@H]2C1	0	8	2.4
C[C@@H]1CN([C@H](C)CO)C(=O)c2cc(-c3ccc(F)cc3)cnc2O[C@@H]1CN(C)C(=O)Nc1ccc(F)cc1	-6	-8	-0.7
O=C(C1CCCC1)N1[C@@H](CO)[C@@H](c2ccccc2)C12CN(CCC(F)(F)F)C2	-2	-1	0.4
CC(C)(O)C#Cc1ccc([C@@H]2[C@H]3CN(S(C)(=O)=O)CCCCN3[C@H]2CO)cc1	1	8	-0.5
CC=Cc1ccc2n(c1=O)C[C@@H]1[C@@H](CO)[C@H](C(=O)NC3CCCCC3)N(CCC)[C@H]21 (mixture of isomers)	1	-3	-3.0
O=C1N[C@H](Cc2ccccc2)COCc2cn(nn2)CC[C@H]1Cc1cccc(F)c1	2	0	-0.1
Cc1ccc(-c2ccc3c(c2)O[C@@H](CN(C)C(=O)C2CCCCC2)[C@H](C)CN([C@H](C)CO)S3(=O)=O)cc1	-1	-12	1.7
CCCN1C[C@@H](C)[C@H](OC)CN(C)C(=O)c2cc(NC(=O)c3ccc4c(c3)OCO4)ccc2OC[C@H]1C	-2	-4	3.5
CCCNC(=O)N1CC2(C1)[C@H](c1ccccc1)[C@H](CO)N2C(=O)C1CCC1	4	4	-0.9
CCCC(=O)Nc1ccc2c(c1)C(=O)N(C)C[C@H](OC)[C@@H](C)CN(Cc1ccc(F)cc1)[C@@H](C)CO2	0	9	0.6
Cc1ccc(S(=O)(=O)Nc2ccc3c(c2)C(=O)N([C@H](C)CO)C[C@@H](C)[C@@H](CN(C)S(=O)(=O)c2ccccc2)OCCCC[C@H](C)O3)cc1	0	2	0.4
O=C1CN(S(=O)(=O)Cc2ccccc2)C[C@H]2[C@H](c3ccc(C#Cc4ccc(F)cc4)cc3)[C@@H](CO)N12	7	19	-4.1
C[C@@H]1CC=CC[C@@H](c2cccc(Cl)c2)NC(=O)[C@H](Cc2ccccc2)N(C)C(=O)c2ccccc2O1 (mixture of isomers)	1	-1	1.5
CC=Cc1ccc2n(c1=O)C[C@H]1N[C@@H]2[C@@H](C(=O)NC2CCCC2)[C@@H]1CO (mixture of isomers)	2	11	-0.3
C/C=C/c1ccc([C@H]2[C@H]3CN(Cc4ccccc4)CC(=O)N3[C@H]2CO)cc1	3	14	0.3
CN1C(=O)c2cc(NC(=O)C3CCCCC3)ccc2OC[C@H]2O[C@@H](CC(=O)NC3CCCC3)CC[C@H]21	-3	-8	-1.8
COc1ccc(C#Cc2ccc([C@@H]3[C@H]4CN(Cc5ccccc5F)CCCCN4[C@H]3CO)cc2)cc1	-47	-60	5.3
C[C@@H]1CCCCO[C@@H](CN(C)S(=O)(=O)c2ccccc2)[C@H](C)CN([C@@H](C)CO)C(=O)c2cc(NC(=O)C3CCCCC3)ccc2O1	-1	-4	0.0
C/C=C/c1ccc([C@H]2[C@@H](CO)N(C(=O)C3CCCC3)[C@H]2CNCCC)cc1	-2	-19	36
C[C@@H]1CCCCO[C@H](CN(C)C(=O)Nc2ccc(C(F)(F)F)cc2)[C@@H](C)CN([C@H](C)CO)C(=O)c2cc(N(C)C)ccc2O1	1	-4	-0.7
COCC(=O)N1[C@@H]2c3ccc(C4=CCCC4)c(=O)n3C[C@@H]2[C@@H](CO)[C@@H]1C(=O)N1CCN(C)CC1	6	11	2.2
O=C(c1ccc(F)cc1)N1CC(=O)N2[C@H](C1)[C@H](c1ccc(-c3ccccc3)cc1)[C@@H]2CO	4	-19	-3.1
COc1ccc2c3c(n(C)c2c1)[C@H](CO)N(C(=O)Nc1ccccc1F)CC31CN(C(=O)c2ccccc2F)C1	6	-9	1.3

7 compounds already listed, ordered by the number in Ecoli rRNA inh RFP, largest number first.
SMILES	Ecoli rRNA inh	Ecoli rRNA inh OD600	Ecoli rRNA inh RFP
COc1ccc2c3c(n(C)c2c1)[C@H](CO)N(C(=O)Nc1ccccc1F)CC31CN(C(=O)c2ccccc2F)C1	6	-9	1.3
O=C1N[C@H](Cc2ccccc2)COCc2cn(nn2)CC[C@H]1Cc1cccc(F)c1	2	0	-0.1
CC=Cc1ccc2n(c1=O)C[C@H]1N[C@@H]2[C@@H](C(=O)NC2CCCC2)[C@@H]1CO (mixture of isomers)	2	11	-0.3
CC(C)(O)C#Cc1ccc([C@@H]2[C@H]3CN(S(C)(=O)=O)CCCCN3[C@H]2CO)cc1	1	8	-0.5
CCCNC(=O)N1CC2(C1)[C@H](c1ccccc1)[C@H](CO)N2C(=O)C1CCC1	4	4	-0.9
O=C(c1ccc(F)cc1)N1CC(=O)N2[C@H](C1)[C@H](c1ccc(-c3ccccc3)cc1)[C@@H]2CO	4	-19	-3.1
COc1ccc(NC(=O)N(C)C[C@H]2OCCCC[C@H](C)Oc3ccc(NS(=O)(=O)c4ccc(C)cc4)cc3C(=O)N([C@@H](C)CO)C[C@H]2C)cc1	6	0	-4.7

Additional entries.
SMILES	Ecoli rRNA inh	Ecoli rRNA inh OD600	Ecoli rRNA inh RFP
CCC(=O)N1[C@H](CN(C)C(=O)c2cccc(F)c2)[C@@H](c2ccccc2)[C@@H]1CO	-2	-1	-1.3
O=C(Nc1ccc(F)cc1)N1CC(=O)N2[C@H](C1)[C@@H](c1ccc(C#Cc3ccccc3)cc1)[C@@H]2CO	-5	-31	25
C[C@@H]1CCCCO[C@H](CN(C)C(=O)c2ccccc2)[C@@H](C)CN([C@@H](C)CO)C(=O)c2cc(NS(C)(=O)=O)ccc2O1	-1	-4	-2.7
CC(C)NC(=O)N(C)C[C@H]1Oc2ccc(NC(=O)C3CC3)cc2C(=O)N([C@H](C)CO)C[C@H]1C	-1	0	-5.3
O=C(c1cnccn1)N1CC(=O)N2[C@H](CO)[C@H](c3ccc(C#CC4CCCCC4)cc3)[C@@H]2C1	0	-45	8.0
O=C(Nc1ccc(F)cc1)N1CC(=O)N2[C@@H](CO)[C@H](c3ccc(C#Cc4ccccc4)cc3)[C@@H]2C1	-26	-41	19
C[C@@H]1CN([C@H](C)CO)C(=O)c2cc(NC(=O)CCCN(C)C)ccc2O[C@H]1CN(C)C(=O)NC1CCCCC1	4	10	4.1
COc1ccc2c3c(n(C)c2c1)[C@H](CO)NCC31CN(S(=O)(=O)c2cccc(F)c2)C1	-3	-12	0.3
C[C@@H]1CN([C@@H](C)CO)C(=O)c2cc(-c3cccc(F)c3)cnc2O[C@H]1CN(C)C(=O)C1CC1	-2	11	-5.1
COc1ccc(S(=O)(=O)N(C)C[C@@H]2Oc3c(NC(=O)Nc4c(C)noc4C)cccc3C(=O)N([C@@H](C)CO)C[C@H]2C)cc1	-2	-9	-2.1
O=C(c1cccnc1)N1CC(=O)N2[C@H](CO)[C@@H](c3ccc(/C=C/c4ccccc4)cc3)[C@@H]2C1	0	-7	3.3
C[C@@H]1CCCCO[C@H](CN(C)C(=O)NC2CCCCC2)[C@H](C)CN([C@H](C)CO)C(=O)c2cc(NC(=O)Cc3ccccc3)ccc2O1	-4	-5	8.9
COc1ccc2c3c([nH]c2c1)[C@H](CO)N(Cc1ccccn1)CC31CN(Cc2cccc(F)c2)C1	-2	-3	0.8
COc1ccccc1C(=O)N1C[C@@H]2[C@H](c3ccccc31)[C@@H](CO)N2C(=O)C1CC1	0	1	-2.2
O=C(c1cccnc1)N1CCCCN2[C@H](CO)[C@H](c3ccc(C#Cc4cccnc4)cc3)[C@H]2C1	-12	5	0.8
C[C@@H]1CN([C@@H](C)CO)C(=O)c2cc(NC(=O)Cc3ccccc3)ccc2O[C@H]1CN(C)C(=O)Nc1ccc2c(c1)OCO2	0	5	-0.6
O=C1CN(S(=O)(=O)c2cccc(F)c2)C[C@@H]2[C@H](c3ccc(-c4ccc(F)cc4)cc3)[C@H](CO)N12	3	-3	-1.0
CCC(=O)N1[C@@H](CO)[C@H](c2ccccc2)C12CN(C(=O)c1ccc3c(c1)OCO3)C2	0	18	1.4
CNC[C@H]1OCc2ccccc2-c2c(n(C)c3ccccc23)C(=O)N([C@@H](C)CO)C[C@H]1C	1	3	-3.8
O=C(C[C@@H]1C[C@@H]2c3cc(NC(=O)Nc4ccccc4)ccc3O[C@@H]2[C@H](CO)O1)NCc1ccccn1	-1	2	-1.9
CCCNC(=O)N1CC2(CCN(S(=O)(=O)c3ccccc3)CC2)c2c(n(C)c3cc(OC)ccc23)[C@@H]1CO	-2	-14	4.3
CC(C)[C@H]1C(=O)N[C@H](c2cccc(Cl)c2)CC=CC[C@@H](C)Oc2ccccc2C(=O)N1C (mixture of isomers)	-8	-16	7.5
COCC(=O)Nc1ccc2c(c1)OC[C@@H](C)N(C(=O)c1ccccn1)C[C@H](C)[C@H](OC)CN(C)C2=O	4	10	-1.1
CCCNC(=O)N1CC2(CN(C(=O)C3CCC3)C2)c2c([nH]c3cc(OC)ccc23)[C@H]1CO	-3	-10	-3.2
CCCC#Cc1ccc([C@H]2[C@H](CO)N3C(=O)CN(C(=O)c4ccc(F)cc4)C[C@@H]23)cc1	8	5	7.1

This is a subset (hit frequency here may not be typical).
